Biofilm kill mix: clotrimazole potentiators killing C. albicans biofilm, primary screen, 4-compound mixtures; C. albicans biofilm persisters + clotrimazole, fluorescence viability; primary screen in compound mixtures of four per well; inhibition, % at 7.6 µM; 120,000 compounds, 0.02% hits;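 active = inhibition above 30.3% in the primary screen of four-compound pools, then above 30% when the compound was retested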;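 also: compounds exposed to preformed 24 h biofilms for 48 h; the number belongs to the whole pool; some results filed as inactive read as strong as hits; inactives centre near 12; 0% = biofilm with clotrimazole alone and 100% = kill control; retested singly at about 60 µM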
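Test system: C. albicans CAF4-2 wild-type biofilms; buffer or medium: RPMI/MOPS medium, pH 7.0; schedule: 24 h biofilm formation, then 48 h compound exposure, 37 °C; detection: Alamar Blue fluorescence; measure: percent inhibition of biofilm viability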
An asterisk follows results filed as active.

SMILES	Biofilm kill mix
COC(=O)CSc1nnc(CNC(=O)c2cc(OC)cc(OC)c2)n1-c1ccc(F)cc1	9
Cc1ccc(NS(=O)(=O)c2ccc(N/N=C/c3ccncc3)c([N+](=O)[O-])c2)c(C)c1	13
O=C(O)CC(CC(=O)Nc1ccc(-n2ccc(C(F)(F)F)n2)cc1)c1ccccc1 (configuration not stated)	25
N#CNC(=Nc1ccccc1)SCc1ccc(C(=O)O)cc1	5
O=C(Nc1ccc(C(=O)O)cc1)Nc1ccc(F)cc1F	-5
CSCCC(NS(=O)(=O)c1ccc(F)cc1)C(=O)NCc1ccc(S(N)(=O)=O)cc1 (configuration not stated)	13
O=C(Cc1ccc(F)cc1)N1CCN=C1SCc1cccc([N+](=O)[O-])c1	3
CCOC(=O)C1=C(O)C(=O)N(CCCn2ccnc2)C1c1ccc(C)cc1 (configuration not stated)	12
CNC(=O)CSc1nnc(C(C)C)n1C	10
O=C(/C=C/c1ccc(F)cc1)N1CCN(c2ccccn2)CC1	3
Cc1nc(-c2ccc(NC(=O)c3ccccc3C)cc2)cs1	12
O=C(CCN1CCN(CCO)CC1)Nc1cccc(Br)c1	12
Cc1cccc(N(C(=O)Cn2nnc(-c3ccc(F)cc3)n2)C(C(=O)NC(C)(C)C)c2ccncc2)c1 (configuration not stated)	14
CCOc1ccc(NC(=O)COc2nsnc2N2CCOCC2)cc1	18
CCOC(=O)C1CCN(C(=O)Nc2ccc(C)c(Cl)c2)CC1	8
Cc1ccc(CN2CCN(C3CCOCC3)CC2CCO)cc1 (configuration not stated)	4
Cn1c(SCc2ccc(Br)cc2)nnc1-c1ccccn1	23
c1ccc(-c2nnsc2Sc2ccccn2)cc1	11
COc1cc(C(=O)Nc2ccc(S(=O)(=O)N3CCOCC3)cc2)c([N+](=O)[O-])cc1OC	12
COc1ccc(Cc2nnc(N/N=C/c3ccc(O)cc3O)[nH]c2=O)cc1OC	10

Continued, overlapping the part above by 2 compounds.
SMILES	Biofilm kill mix
COc1cc(C(=O)Nc2ccc(S(=O)(=O)N3CCOCC3)cc2)c([N+](=O)[O-])cc1OC	12
COc1ccc(Cc2nnc(N/N=C/c3ccc(O)cc3O)[nH]c2=O)cc1OC	10
S=C(NC1CC1)NC1CCCc2ccccc21 (configuration not stated)	19
CCOC(=O)C1(Cc2cccc(OC)c2)CCN(Cc2ccon2)CC1	30
O=C(COc1cccc(Cl)c1)N/N=C\c1cc2ccccc2nc1Cl	10
COc1cc(NC(=O)c2ccco2)c(C(=O)OCC(=O)c2c[nH]c3ccccc23)cc1OC	12
c1ccc(-c2nnc(NC3=NCCC3)o2)cc1	19
COc1ccc(N2CC(O)=C(c3nc(-c4ccc(Br)cc4)cs3)C2=N)cc1	13
COc1ccc(-c2[nH]ncc2CN(C)Cc2nonc2C)c(OC)c1	15
CN(/N=C/C=C/c1ccccc1)c1cc(=O)n(C)c(=O)[nH]1	8
Cc1ccc(NC(=O)C(=O)C2C(=O)Nc3ccccc32)cc1 (configuration not stated)	16
COc1cc(OC)cc(N2C(=O)CSCC2=O)c1	10
C/C(Cc1ccccc1)=N\NC(=O)CNC(=O)c1cccc(Br)c1	6
COC(=O)/C=C/c1ccc(OC(=O)OC)c(OC(=O)OC)c1	10
CC[n+]1ccccc1/C=C/c1ccc(N(C)C)cc1	5
C=CCN(CC=C)C(=O)C(=O)c1ccn(-c2c(C)csc2C(=O)OC)c1	10
CC(=O)Oc1ccccc1C1C[C@]2(C)CC(=O)NC2N1C(C)=O (some centres not stated)	9
O=C(NCc1ccccc1)c1csc(-c2cccnc2)n1	16
COC(=O)C1CCN(C(=O)COC(=O)COc2ccc(C#N)cc2)CC1	8
Cc1ccc(CNC(=O)Nc2cccc(C)c2)cc1	16
Nn1c(Cc2cccc3ccccc23)n[nH]c1=S	16
CCOC(=O)c1c(NC(=O)c2ccno2)c2cc([N+](=O)[O-])ccc2n1C	6
S=C(Nc1ccc(Cl)cc1Cl)NC1CCN(Cc2ccccc2)CC1	10
N/C(=N\OC(=O)Cc1ccccc1)c1ccccc1Cl	7
COc1ccc(N2CC(O)=C(c3nc(-c4ccc(F)cc4)cs3)C2=N)cc1OC	14
CC(C)C[C@H](NC(=O)c1nc[nH]c1C(=O)NCCCCCNC(=O)OC(C)(C)C)C(=O)OCc1ccccc1	15
Cc1ccsc1C(=O)OCC(=O)Nc1c(Cl)cccc1C(F)(F)F	11
NC(=O)COC(=O)c1cccnc1Nc1ccccc1F	0
COc1ccc(CC(NC(C)=O)C(=O)NC2CCN(c3nnnn3-c3ccccc3)CC2)cc1OC (configuration not stated)	7
COc1ccccc1CNC(=O)C(C)Sc1ccsc1[N+](=O)[O-] (configuration not stated)	15
O=C1SC(Cc2ccccc2)C(=O)N1c1ccccc1 (configuration not stated)	19
O=C1CN(C(=O)COC(=O)CNC(=O)c2ccc(Br)o2)c2ccccc2N1	6
CCN(C(=O)CSc1nnnn1-c1ccccc1)c1c(N)n(Cc2ccccc2)c(=O)[nH]c1=O	12
O=S(=O)(Nc1nccs1)c1ccc(Nc2nnc(-c3ccccc3)c3ccccc23)cc1	-4
O=C1C[C@H]2[C@H](CO)[C@@H](OC(=O)c3ccc(-c4ccccc4)cc3)C[C@H]2O1	10
CN(C)S(=O)(=O)c1ccc(C(=O)NNc2nc(-c3ccccc3)c3cc(Br)ccc3n2)cc1	3
COc1cc(/C=C2\CC/C(=C\c3cc(OC)c(O)c(OC)c3)C2=O)cc(OC)c1O	6
CN(C)c1nc(NC(C)(C)C)nc(NC(C)(C)C)n1	14
COc1ccc(CCc2cc(OC)cc(=O)o2)cc1	22
COc1cc(/C=C2/SC(=S)N(CC(=O)NC(C)(C)C)C2=O)cc(OC)c1OC	3
CCOC1=NN(c2ccc(Cl)cc2)C(=O)/C1=C\N(C)C	-1
CCOP(=O)(OCC)C(NC(=O)C(F)(F)F)c1ccccc1 (configuration not stated)	5
CC[C@@H](C)C(C(=O)N1CCN(C(=O)OC(C)(C)C)CC1)n1cc(-c2cn([C@@H](C)C(=O)N3CCN(C(=O)OC(C)(C)C)CC3)nn2)nn1 (some centres not stated)	6
Cc1ccccc1C1CCCN(Cc2nc(CC3CC3)no2)C1 (configuration not stated)	11
Cc1ccccc1NCC(=O)N/N=C/c1c(C)c(C(=O)c2ccc(Cl)cc2)n2ccccc12	8
O=C(O)c1cccc(Cn2c(Cl)c(/C=N/NC(=O)c3ccccc3O)sc2=O)c1	15
Cn1cc([N+](=O)[O-])c(C(=O)Nc2cnn(Cc3ccc(F)cc3)c2)n1	9
c1ccc(SCc2cc(-c3ccccc3)no2)cc1	16
CCOC(=O)C1=C(C)NC(=S)NC1c1cc(C)sc1C (configuration not stated)	12
COc1ccc(N(CC(=O)NCc2ccccn2)S(=O)(=O)c2ccccc2[N+](=O)[O-])c(OC)c1	17
Cc1cc(CN(C)Cc2cn(C)nc2-c2ccc(Oc3ccccc3)cc2)on1	27
CCOC(=O)c1ccc(NC(=S)Nc2ccc(Cl)cn2)cc1	11
Cc1ccc(SC[C@H](CC(C)C)N2CCN(CCc3ccccc3)CCC2=O)cc1	6
CCOC(=O)/C(C#N)=C/c1cn(CCC(=O)O)nc1-c1ccc(OC)cc1	11
CCNC(=O)C12CCC(C)(C(=O)O1)C2(C)C (configuration not stated)	17
COc1ccc(-c2n[nH]c(C)c2-c2cscn2)c(O)c1	19
Cc1cc(NO)c(C(C)C)cc1N=O	2
CCCNC(=S)N1CCC(n2cnc3ccccc32)CC1	13
Fc1cc(F)c2nc(N3CCCC3)sc2c1	21
Cc1sc(NC(=S)NC(=O)CCc2ccccc2)c(C(N)=O)c1C	10
CCCN(CC1CC1)C(=S)NC(=O)C1CC1	4
COc1ccc(CN2CCN(C(=O)c3cc(-c4cccnc4)nc4ccc(Cl)cc34)CC2)c(OC)c1OC	21
Continued.
SMILES	Biofilm kill mix
CC(C)C1CC(CCNCc2ccc3c(c2)OCO3)(c2ccccc2)CCO1 (configuration not stated)	18
CC(C)Sc1cc(N2CCCC2)nc(-c2ccccc2Cl)n1	18
CC(=O)c1cccc(NC(=O)C(=O)Nc2cccc3ccccc23)c1	25
N#C/C(=C\Nc1ccccc1O)c1nc2ccccc2o1	21
Cc1ccc(-c2nsc(SCC(=O)NCC3CCCO3)n2)cc1 (configuration not stated)	3
COc1ccc(NC(=O)C(=O)NNC(=O)C(C)Oc2ccc(Cl)cc2Cl)cc1 (configuration not stated)	10
COC(=O)C/C(O)=C(/N=Nc1cccc(C(F)(F)F)c1)C(=O)OC	-4
Cc1ccc(N=C2SC(C(=O)Nc3ccc(OC(F)(F)F)cc3)C(N)=C2C(=O)Nc2c(C)cc(C)cc2C)cc1 (configuration not stated)	14
CCOC(=O)c1c(C)n(C)c2cc(Br)c(O)c(O)c12	12
COc1ccc(OCc2nc3c4cc(OC)c(OC)cc4nc(=S)n3[nH]2)cc1	13
Cc1cc(O)cc(O)c1C=NCc1ccco1	16
CC(=O)c1ccc(NC(=O)C(C)NCc2ccc(Cl)cc2)cc1 (configuration not stated)	8
O=C(Nc1ccccc1C(=O)Nc1nnc(C(F)(F)F)s1)c1ccccc1	23
CC(=O)Nc1n[nH]c(-c2ccc(C)cc2)c1C	-5
CCO[C@@H]1OC(C(=O)Nc2ccccc2)=C[C@H](c2coc3ccccc3c2=O)[C@H]1CCCO	18
NNC(=O)[C@H]1C[C@@H]1c1ccccc1	21
CC1=C(CO)C(=O)OC([C@@H](C)C2CC[C@H]3C4C[C@H]5O[C@]56[C@@H](O)C=CC(=O)[C@]6(C)C4CC[C@]23C)C1 (some centres not stated)	14
COc1ccc(/C(N)=N/OC(=O)Cc2cccs2)cc1	6
CC(C)(C)NC(=O)C(c1ccc(F)cc1)N(CCc1ccccc1)C(=O)c1ccn[nH]1 (configuration not stated)	22
CN(Cc1nccn1C)C(=O)c1cc(COc2ccc3ncccc3c2)on1	27
O=C(/C=C/c1cccs1)NC(=S)Nc1ccccc1	11
COc1ccc(C(=O)C[n+]2ccc(-c3nnc4n3CCCCC4)cc2)cc1	16
CCOP(=O)(OCC)C(Nc1ccccn1)c1ccc(F)cc1 (configuration not stated)	9
O=C(O)c1cccc(S(=O)(=O)Nc2ccc(O)cc2Sc2nc3ccccc3s2)c1	8
Cn1nc(C(C)(C)C)c([N+](=O)[O-])c1C(=O)NC(C)(C)C	16
CN(C)S(=O)(=O)c1cccc(NC(=O)c2cc(-c3cccs3)nc3ccccc23)c1	-9
CCOc1cc(/C=N/NC(=S)Nc2ccccc2C(F)(F)F)ccc1OCC(=O)N1CCOCC1	4
COc1ccccc1NC(=O)/C(C#N)=C/c1c(C)nn(-c2ccc(F)cc2)c1Cl	15
COc1ccccc1C(=O)Nc1cccc(Oc2c(F)c(F)c(F)c(F)c2F)c1	24
COc1ccc(-c2cc(C(=O)Nc3ccc(S(=O)(=O)Nc4ncccn4)cc3)c3ccccc3n2)cc1	23
CN1CCN(C(=O)c2cc3nc(-c4ccco4)cc(C(F)(F)F)n3n2)CC1	5
CN(C)S(=O)(=O)c1cccc(NC(=O)COC(=O)c2cc(=O)c3ccccc3o2)c1	22
Cc1ccc(S(=O)(=O)Oc2cc(N)c3c(n2)CCC3)cc1	15
CCC/C(O)=C1\C(=O)CC(c2ccccc2)CC1=NCCc1c(C)[nH]c2ccc(C)cc12 (configuration not stated)	7
Cc1onc(-c2c(Cl)cccc2Cl)c1C(=O)Nc1ccc(N2CCOCC2)cc1	29
Cc1cc(N2CCCCC2)nc2c(C)cccc12	9
O=C(N=Nc1c(O)[nH]c2ccccc12)c1ccccc1NS(=O)(=O)c1cccs1	12
CCOc1ccc(C(C)=O)cc1Cc1c(O)nc(N)[nH]c1=O	3
Cc1cc(C)c2nc(SCC(=O)NC(=O)c3cccn3C)cc(C)c2c1	6
COc1cccc(/C(C)=N/Nc2ncc(Cl)cc2Cl)c1	15
CC(C)(C)c1ccc(C(=O)NCc2ccccc2)cc1	22
CC(=O)c1cc(-c2ccccc2)n(CC(=O)Nc2cccc(C)c2C)c1C	-10
O=C1CN(S(=O)(=O)c2ccccc2)CCN1S(=O)(=O)c1ccccc1	15

In a second layout: entries from further up.
canonical_smiles,Biofilm kill mix
O=C(/C=C/c1cccs1)NC(=S)Nc1ccccc1,11
COc1ccc(C(=O)C[n+]2ccc(-c3nnc4n3CCCCC4)cc2)cc1,16
CCOP(=O)(OCC)C(Nc1ccccn1)c1ccc(F)cc1 (configuration not stated),9
O=C(O)c1cccc(S(=O)(=O)Nc2ccc(O)cc2Sc2nc3ccccc3s2)c1,8
Cn1nc(C(C)(C)C)c([N+](=O)[O-])c1C(=O)NC(C)(C)C,16
CN(C)S(=O)(=O)c1cccc(NC(=O)c2cc(-c3cccs3)nc3ccccc23)c1,-9
CCOc1cc(/C=N/NC(=S)Nc2ccccc2C(F)(F)F)ccc1OCC(=O)N1CCOCC1,4
COc1ccccc1NC(=O)/C(C#N)=C/c1c(C)nn(-c2ccc(F)cc2)c1Cl,15
COc1ccccc1C(=O)Nc1cccc(Oc2c(F)c(F)c(F)c(F)c2F)c1,24
COc1ccc(-c2cc(C(=O)Nc3ccc(S(=O)(=O)Nc4ncccn4)cc3)c3ccccc3n2)cc1,23
CN1CCN(C(=O)c2cc3nc(-c4ccco4)cc(C(F)(F)F)n3n2)CC1,5
CN(C)S(=O)(=O)c1cccc(NC(=O)COC(=O)c2cc(=O)c3ccccc3o2)c1,22
Cc1ccc(S(=O)(=O)Oc2cc(N)c3c(n2)CCC3)cc1,15
CCC/C(O)=C1\C(=O)CC(c2ccccc2)CC1=NCCc1c(C)[nH]c2ccc(C)cc12 (configuration not stated),7
Cc1onc(-c2c(Cl)cccc2Cl)c1C(=O)Nc1ccc(N2CCOCC2)cc1,29
Cc1cc(N2CCCCC2)nc2c(C)cccc12,9
O=C(N=Nc1c(O)[nH]c2ccccc12)c1ccccc1NS(=O)(=O)c1cccs1,12
CCOc1ccc(C(C)=O)cc1Cc1c(O)nc(N)[nH]c1=O,3

This is a subset, so the mix of outcomes need not match the whole.
